Assay outcomes: PubChem BioAssay, several laboratories
A1 inh = caspase 3/7 activation in MEF A1-2A-BIM cells, primary screen, A1 inhibitor project, cell-based, luminescence, HTS; caspase activation, % (concentration not given with the values); 0.066% of 330,000 active; Caspase-Glo 3/7 luminescence, 3 h; percent of clofoctol response, vehicle zero;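 active = over half of replicate activation scores above 10%, or exactly half above 10 with the replicate mean above 10; inconclusive = replicate mean below 10 yet half the replicates above 10; inactive = over half of replicates below 10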;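 note: wells of about 30 µL received 50 nL stock; many hits fall short of the cut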
UCH37 DUB inh = inhibitors of human UCH37 deubiquitinase, primary screen, biochemical, Ub-AMC cleavage, fluorescence. purified proteasome/UCH37. inhibition, % (test concentration not listed). 0.33% of 330,000 active;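 active = mean of two replicates above 20%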;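 note: 0% = compound-free wells with enzyme and 100% = wells lacking proteasome; stock transfer was 100 nL into about 20 µL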
Target sequence (Q9Y5K5 whole entry, looked up): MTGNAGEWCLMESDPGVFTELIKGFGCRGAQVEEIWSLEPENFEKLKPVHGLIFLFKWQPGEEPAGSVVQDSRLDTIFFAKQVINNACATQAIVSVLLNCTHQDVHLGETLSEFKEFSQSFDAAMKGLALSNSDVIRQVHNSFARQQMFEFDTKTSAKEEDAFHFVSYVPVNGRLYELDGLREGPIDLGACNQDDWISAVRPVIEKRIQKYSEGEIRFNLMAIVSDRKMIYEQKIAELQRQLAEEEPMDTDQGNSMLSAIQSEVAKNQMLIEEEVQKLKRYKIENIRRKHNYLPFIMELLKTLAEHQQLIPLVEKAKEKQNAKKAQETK
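Material: Human UCH37 enzyme supplied as purified proteasome complex | Schedule: 30 min preincubation with enzyme, 25 min cleavage at room temperature | Detection: AMC fluorescence 355/460 nm | Measure: % inhibition of Ub-AMC cleavage fluorescence | Controls: Wells without proteasome as full block, compound-free enzyme plus substrate as uninhibited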
Beta2AR agonist = beta2AR agonists driving receptor internalization, primary screen, cell-based, FAP fluorogen, flow cytometry; Beta-2 adrenergic receptor (Homo sapiens), P07550; Am2.2-beta2AR cells; reference of the scale not given here; response, % (no concentration beside the values); 0.43% of 340,000 active; AID 504454, 2011;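 active = response above a set limit, near 3 SD of response in nonfluorescent compounds, cut at about 42% in these data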;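 note: stock transfer was 100 nL into about 11 µL; a reference agonist was the positive control; negative values mostly stem from fluorescent compounds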
Target sequence (P07550 whole entry, looked up): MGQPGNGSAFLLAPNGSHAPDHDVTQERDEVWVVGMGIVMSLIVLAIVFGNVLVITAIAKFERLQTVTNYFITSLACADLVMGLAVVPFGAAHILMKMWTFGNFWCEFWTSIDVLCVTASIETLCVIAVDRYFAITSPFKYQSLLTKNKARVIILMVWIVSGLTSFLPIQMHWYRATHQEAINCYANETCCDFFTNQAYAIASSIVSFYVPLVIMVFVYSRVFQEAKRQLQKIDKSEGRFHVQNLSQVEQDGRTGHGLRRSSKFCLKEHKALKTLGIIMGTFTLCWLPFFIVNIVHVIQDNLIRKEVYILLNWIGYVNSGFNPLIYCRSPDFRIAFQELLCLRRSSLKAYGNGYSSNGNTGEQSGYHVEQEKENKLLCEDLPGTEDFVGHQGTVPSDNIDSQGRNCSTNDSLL
HNF4A DNA FP = change in binding of human HNF4A to DNA, primary screen, biochemical, fluorescence polarization, FITC-DNA; 1 h; 0.3% of 360,000 active; activity change, % at 10 µM; Hepatocyte nuclear factor 4-alpha (Homo sapiens), P41235; in the data active = activity change above about 30%, passing the limit was not always enough;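 note: controls were the assay level and a saturating level of protein; the project sought stronger binding though the title names inhibitors; some compounds called inactive have numbers as strong as hits; positive values seem to mean higher polarization but the record does not say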
Ecoli growth = E. coli growth inhibition, primary screen, OD600; OD600 absorbance (concentration not given with the values); 0.21% of 330,000 active; Escherichia coli growth, 23 h; active compounds read low; AID 1053175, 2014;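 active = OD600 absorbance below the run mean of sample wells minus 3.6 SD, in any replicate, cut at about 0.56 in these data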;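 note: stock transfer was 300 nL into about 60 µL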
Vif A3G = inhibitors of Vif binding to APOBEC3G peptide, primary screen, biochemical, TR-FRET, GST-Vif 1-94, biotin-A3G peptide, dose response retest (AID 1117319); TR-FRET GST-Vif / biotin-A3G peptide binding; higher % means a stronger effect; test concentration not given here; strong numbers were not always called active; inhibition, %, or IC50 in µM where a hit was titrated; 0.57% of 260,000 active;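 active = above the screen mean plus three standard deviations and confirmed in dose response; inconclusive = results disagree or hit not tested in dose response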;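 note: Vif residues 1-94 fused to GST binding biotinylated APOBEC3G peptide 110-148; 0% = full assay without inhibitor and 100% = GST in place of GST-Vif; retest series ran down from 100 µM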
LANA-H2A inh = blockers of LANA interaction with H2A/H2B – biochemical, FP readout, HTS, primary screen | inhibition, % (no concentration beside the values) | 0.6% of 320,000 active | cell-free LANA-H2A/H2B peptide, fluorescence polarization | Protein LANA1 (Human herpesvirus 8 type P (isolate GK18)), Q9QR71; in the data active = inhibition mostly above about 10%, no sharp cut-off; inactive = mostly below about 6.7%;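 note: stock transfer was 7.5 nL into about 10 µL; 0% = median of vehicle wells and 100% = median of positive control wells; one replicate is shown; the record names a cut of 25% in any replicate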
* = called active by the depositor; ? = inconclusive; nt = no result given.

Values run as follows: A1 inh	UCH37 DUB inh	Beta2AR agonist	HNF4A DNA FP	Ecoli growth	Vif A3G	LANA-H2A inh
1: O=C(O)CC1NCCc2ccccc21 (stereo unspecified)
  -0.6	5.5	-8	-1.4	0.7	2%	-2.1
2: O=C(c1ccco1)N1CCN(c2nc(C3CC3)nc3sc4c(c23)CCCC4)CC1
  -0.7	-17	-8	1.3	0.67	-5%	8.9
3: CCCN1CCN(C(=O)C2CCN(c3nnc(C)c4c(C)n(-c5ccc(C)cc5)nc34)CC2)CC1
  0.8	-32	19	34	0.64	6%	-23
4: Cc1ccc(NC(=O)[C@@]2(CC(=O)O)CC(/C=C/c3ccccc3)=NO2)c(C)c1
  -0.2	3.6	2	-2.2	0.69	0%	-8.1
5: C=CCOc1ccc(C2/C(=C(/O)c3ccc(OC)cc3)C(=O)C(=O)N2CCN2CCNCC2)cc1 (stereo unspecified)
  -0.5	55*	-1	2.5	0.7	2%	4.7
6: COc1ccc(-c2csc(NC(=S)NC(=O)/C=C/c3ccco3)n2)cc1Br
  1.8	nt	35	4.3	nt	13%	3.0
7: N#Cc1c(-c2ccccc2)nc2n(-c3ccccc3)nc(C(=O)Nc3ccccc3)n2c1=O
  -0.1	4.0	2	-2.0	0.74	-2%	-0.5
8: CCCCCn1c(Br)nc2c1c(=O)n(CC(N)=O)c(=O)n2C
  0.1	4.6	2	0.3	0.68	2%	5.9
9: Cc1ccc(C2=C(CC(=O)O)C(=O)CC2)cc1
  -0.2	2.7	-4	6.4	0.65	nt	2.1
10: Cc1cc(C)nc(SCC(=O)NC2=NC(=O)C(C)S2)n1 (stereo unspecified)
  0.0	3.9	nt	nt	0.72	-12%	0.0
11: COc1cc(/C=C/C(=O)OCC(=O)NCc2ccc(F)cc2)ccc1O
  -0.4	-6.9	4	1.6	0.68	-3%	6.6
12: CC(=O)N1CCN(CCN=CC2=C(O)CC(c3cccs3)CC2=O)CC1 (stereo unspecified)
  -0.1	0.6	-7	-1.6	0.76	16%	0.6
13: O=C(Nc1ccccc1-c1ccccc1NC(=O)c1ccco1)c1ccco1
  1.0	1.1	0	-0.2	0.76	5%	6.8
14: CN(CCCN1CCOCC1)C(=O)c1cc(COc2cccc(C(F)(F)F)c2)on1
  -0.3	6.7	52*	11	0.66	nt	-2.8
15: O=C(COC(=O)Cn1cnc2ccccc21)NCCCc1ccccc1
  -0.1	5.7	4	0.8	0.67	-1%	2.3
16: Cc1cc(C)n(CC(=O)NCCC2=CCCCC2)n1
  0.0	0.9	-8	-0.2	0.67	nt	1.3
17: COc1ccc(-c2ccc(S(=O)(=O)N3CCCC3)cc2)cc1
  0.2	-2.0	-1	-3.0	0.64	nt	-1.4
18: Cc1[nH]c2ccccc2c1/C=C(\C#N)C(=O)NCC1CCCO1 (stereo unspecified)
  1.1	11	-1	0.2	0.66	2%	-2.7
19: CC(Oc1cc(Cl)ccc1Cl)C(=O)N/N=C\c1ccnn1C (stereo unspecified)
  0.2	nt	-5	2.6	nt	nt	-4.7
20: COc1cccc(NC(=O)Cn2c(CCC(=O)O)ccc2-c2ccc(C)cc2)c1
  -0.3	-4.0	6	-2.2	0.69	nt	-0.7

Marked active in UCH37 DUB inh (from the list above):
No.	mol	A1 inh	UCH37 DUB inh	Beta2AR agonist	Vif A3G	LANA-H2A inh
5	C=CCOc1ccc(C2/C(=C(/O)c3ccc(OC)cc3)C(=O)C(=O)N2CCN2CCNCC2)cc1 (stereo unspecified)	-0.5	55*	-1	2%	4.7

The results go on.
Values run as follows: A1 inh	UCH37 DUB inh	Beta2AR agonist	HNF4A DNA FP	Ecoli growth	Vif A3G	LANA-H2A inh
21: COc1ccccc1N(CC(=O)NCc1ccc(F)cc1)C(=O)CCC(=O)Nc1ccccn1
  -1.2	2.6	-1	2.6	0.71	nt	4.2
22: O=C(CSc1nnc(-c2ccccc2)o1)NC1CC1
  -1.0	0.6	-1	-1.8	0.72	-4%	0.1
23: C=C(C)C(=O)Nc1cccc(C2=NOC3(C2)C[C@@H](C(N)=O)N(C(=O)CC(c2ccccc2)c2ccccc2)C3)c1 (stereo partly specified)
  0.0	2.3	8	-30	nt	3.1µM*	1.3
24: Cn1c(COc2ccc(Cl)cc2)nc2ccccc2c1=O
  0.0	-1.6	-1	1.8	0.7	1%	-3.9
25: CCC(C)(C)NC(=O)CN(C(=O)CCC(=O)Nc1cc(C)ccn1)c1ccc2c(c1)OCO2
  0.1	1.1	2	7.6	0.74	14%	-7.3
26: CN(CCCNC(=O)c1ccc(/C=N/O)nc1)CCCN(C)Cc1ccccc1
  0.5	nt	1	-0.5	nt	6%	2.0
27: O=C(N=Nc1c(O)n(C2OC(=O)c3ccccc32)c2ccccc12)c1ccco1 (stereo unspecified)
  0.9	5.3	nt	nt	0.72	0%	6.1
28: COc1cc(C=NNC(=O)Cn2nc(C)cc2C)ccc1OC(=O)C1CC1
  0.7	1.5	-4	4.1	0.69	nt	-3.1
29: COc1ccc(-c2nn(Cc3ccccc3)cc2C(=O)N2CCN(c3ncccn3)CC2)cc1
  0.4	3.9	-4	6.2	0.69	0%	4.4
30: Cc1cccc(NC(=O)C(=O)NCC2CCCN2S(=O)(=O)c2ccccc2)c1 (stereo unspecified)
  -1.3	0.2	-1	6.7	0.63	6%	0.0
31: COc1ccc(CC(=O)OC(C)C(=O)NC2CCCCC2C)cc1 (stereo unspecified)
  nt	-2.7	2	-2.5	0.72	-2%	nt
32: COc1ccc(CCNc2cc(C)nc3c(-c4ccccc4OC)cnn23)cc1OC
  -0.9	-46	4	-0.8	0.66	3%	0.5
33: Cc1ccc(S(=O)(=O)N2CCN(C(=O)COC(=O)COc3cccc(C(F)(F)F)c3)CC2)c(C)c1
  -1.0	nt	5	2.5	nt	nt	1.1
34: O=C(O)C1CCN(S(=O)(=O)c2ccc(Oc3ccccc3)cc2)CC1
  0.8	2.7	-3	-4.7	0.72	17%	-1.5
35: Cc1ccc(-n2ncc3c2CC(C)(C)CC3NC(=O)c2ccc[n+]([O-])c2)cc1 (stereo unspecified)
  -0.2	2.6	-1	-0.5	0.67	nt	-2.5
36: CSc1nc(SCCN(C)C)c2c3c(sc2n1)COC(C)(C)C3
  ?	-7.5	15	1.2	0.69	-12%	-2.4
37: Cc1ccc(CONC(=O)c2ccc(OC(F)F)cc2)cc1
  -0.3	2.0	-2	2.7	0.73	3%	-1.7
38: CC1CC(C)CN(C(=O)CNS(=O)(=O)c2cccs2)C1 (stereo unspecified)
  0.2	1.9	7	2.6	0.68	-1%	0.4
39: CCOc1ccc2c(c1)-c1c(ssc1=S)C(C)(C)N2C(=O)c1ccco1
  -0.4	7.9	-1	-5.2	0.73	?	0.3
40: CC12C=CC(=O)C=C1CCC1C2CCC2(C)C(C(=O)CO)CCC12 (stereo unspecified)
  nt	3.2	-8	4.3	0.7	-7%	nt
41: CC1CCN(C(=O)CCS(=O)(=O)c2cc3c(cc2Cl)NC(=O)CO3)CC1
  ?	1.2	-4	-1.3	0.7	nt	3.7
42: CC(C)c1ccc(CNC(=O)C(=O)NCC2CCCO2)cc1 (stereo unspecified)
  1.0	2.2	-16	2.3	0.69	4%	2.3
43: C[C@H](CO)N1C[C@H](C)[C@@H](CN(C)S(=O)(=O)c2ccccc2)Oc2c(NC(=O)Nc3ccccc3)cccc2C1=O
  nt	0.6	1	1.5	0.72	4%	nt
44: CCc1c(O)nc(SC2CC(=O)N(c3ccc(F)c(Cl)c3)C2=O)[nH]c1=O (stereo unspecified)
  0.1	0.6	-3	-0.9	0.71	5%	-2.7
45: COCc1c(N)c(C)nc(Cl)c1C#N
  1.3	-20	-5	-6.4	0.67	9%	3.9
46: O=C1NC(=O)/C(=C\c2ccc(Oc3cnccn3)cc2)S1
  -3.0	8.2	2	-2.6	0.71	-5%	2.1
47: Cc1cccc(Nc2nc(N)nc(CN3CCN(Cc4ccc5c(c4)OCO5)CC3)n2)c1
  -0.2	1.8	-3	1.4	0.69	0%	2.2
48: O=C(NC1CCCCC1)c1ccc(CNc2nc(=S)[nH]c3ccccc23)cc1
  -0.2	-0.8	-3	5.5	0.69	-7%	2.9
49: O=C(NCC(c1cccs1)N1CCOCC1)c1cc(=O)[nH]c2ccccc12 (stereo unspecified)
  -0.3	-20	-3	-1.2	0.6	-3%	0.3
50: CN(c1cccc(NC(=O)Nc2cccc(Cl)c2)c1)S(C)(=O)=O
  -2.6	-1.7	-2	-2.5	0.65	1%	-0.7
51: COCCSc1ccccc1C(=O)N1CCN(Cc2ccc3c(c2)OCO3)CC1
  0.4	1.4	4	3.8	0.69	-10%	-2.2
52: CCOC(=O)Nc1ccc(S(=O)(=O)Nn2cnnc2)cc1
  0.3	-0.4	-4	-1.2	0.66	3%	4.2
53: COC(=O)CNC(=O)CN1C(=O)N(c2ccccc2)C(N(O)C(=O)Nc2ccccc2)C1(C)C (stereo unspecified)
  0.1	1.4	-6	4.3	0.76	-1%	-0.5
54: CN(C(=O)OC(C)(C)C)[C@H](Cc1ccccc1)C(=O)N[C@H]1CCCCNC1=O
  nt	0.7	-3	1.1	0.74	-2%	nt
55: NC1=NS(=O)(=O)NC1c1cccc(Cl)c1 (stereo unspecified)
  0.5	-1.4	6	-2.9	0.72	-10%	-3.3
56: COc1ccc(NC(=O)c2ccc(-n3nc(C)c[n+]3[O-])cc2)cc1
  -0.7	2.0	0	-1.0	0.71	29%	nt
57: Cc1cccc(OCC(O)CN2CCN(C3CCCCC3)CC2)c1 (stereo unspecified)
  0.6	2.0	-9	-0.4	0.76	10%	3.7
58: COc1ccccc1NCC(O)COc1ccc(C(C)(C)C)cc1 (stereo unspecified)
  -0.1	-0.1	2	-0.2	0.69	3%	-1.8
59: CCOC(=O)c1c(NC(=O)CSc2nnc(N)s2)sc(C)c1-c1ccc(C)cc1
  -0.9	1.7	-5	4.3	0.7	nt	-3.8
60: Cc1ccc(NC(=O)CN(C)CC(=O)N(C)Cc2ccccc2)cc1
  -0.3	3.7	-1	1.7	0.7	nt	4.2

Arranged by the number under Vif A3G (low to high): some entries from above.
cpd	Compound	Vif A3G
46	O=C1NC(=O)/C(=C\c2ccc(Oc3cnccn3)cc2)S1	-5%
53	COC(=O)CNC(=O)CN1C(=O)N(c2ccccc2)C(N(O)C(=O)Nc2ccccc2)C1(C)C (stereo unspecified)	-1%
50	CN(c1cccc(NC(=O)Nc2cccc(Cl)c2)c1)S(C)(=O)=O	1%

Following part
Values run as follows: A1 inh	UCH37 DUB inh	Beta2AR agonist	HNF4A DNA FP	Ecoli growth	Vif A3G	LANA-H2A inh
61: COc1cccc(Nc2nc(-c3sc(NC(=O)c4ccccc4)nc3C)cs2)c1
  -11	-21	8	15	0.75	4%	-2.6
62: C=COCCNC(=O)C1CC(=O)N(c2ccc(C)cc2)C1 (stereo unspecified)
  0.5	1.5	4	-3.5	0.7	0%	-0.3
63: Cc1ccc(S(=O)(=O)N2CCC(C(=O)OCC(=O)N3CCc4ccccc43)CC2)cc1
  -0.4	0.2	2	2.2	0.71	25%	1.7
64: COc1ccc(S(=O)(=O)N2CCN(c3ccccc3)CC2)cc1C(=O)N1CCCC1
  -0.4	0.9	4	1.9	0.69	nt	-9.8
65: O=S(=O)(c1ccc(Br)s1)N1CCNCC1
  0.5	1.2	2	-0.8	0.66	9%	-1.6
66: C=C(CCO)C1=CCN(S(=O)(=O)C(C)(C)C)[C@H]1CCO
  nt	1.1	-10	1.1	0.68	-8%	nt
67: Cc1ccc2[nH]c(=O)c(CN(Cc3cccs3)C(=S)NCc3ccco3)cc2c1
  0.9	-0.2	1	2.2	0.73	-5%	-0.4
68: CN(C)/C=N/c1[nH]ncc1C#N
  0.7	nt	2	1.2	nt	-2%	-2.6
